# Source: PubChem BioAssay (National Center for Advancing Translational Sciences (NCATS))
# HSD17B inhib: HSD17B dehydrogenase inhibition | Q99714 | recombinant HSD17B10, NADH fluorescence kinetic; many of its hits are not listed in these tables | Potency, µM (highest dose often 57.1 µM), for the others: at the top dose activity change, negative = inhibition, usual class: inhibitors | 7.6% of 75,000 active; active means well fitted inhibition curve with a large enough effect; inconclusive means small, poorly fitted or top-dose-only effect; inactive means no such curve, though single readings can be large or run the other way;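 further: the protocol describes HADH2 (HSD17B10) and not the HSD17B4 of the title; nearly all actives have a fitted effect of over 70% in size; most hits overshoot -100% by far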
#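 Activity followed as NADH fluorescence increase (ex 360, em 450 nm) every 30 seconds for 4 min, using final 90 uM beta-hydroxybutyryl CoA and 1 mM NAD+. Recombinant His-tagged enzyme, 20 nM, pH 9.0 Tris buffer, 15 min compound preincubation.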
# An asterisk follows results filed as active; ? = inconclusive; [ ] = remark or other dose. On the % scale 0 is the no-effect control and ±100 the full control effect; potency means the concentration at half of the fitted maximal effect. The list is partial; the hit share may differ from the screen's.
SMILES,HSD17B inhib
COC(=O)C1=C(C)NC2=C(C(=O)CCC2)C1c1cccs1 (centres undefined),32µM*
COc1ccc(C(=O)Nc2ccc3oc(-c4cccc(F)c4)nc3c2)cc1OC,20µM*
Cc1cc(Nc2cccc(C)c2C)n2nc(C)nc2n1,2%
Cc1cccc(N2CCN(C(=O)CCNC(=O)Cn3ccc4ccccc4c3=O)CC2)c1C,0%
COc1ccc(NC(=O)N(Cc2cccnc2)Cc2ccccc2Cl)c(OC)c1,-2%
CN(C(=O)COC(=O)COc1ccc(Cl)cc1)C1CCCCC1,0%
COc1ccccc1NC(=O)CSc1nnc(-c2ccncc2)o1,4%
COC(=O)c1ccccc1NC(=O)CSc1nc2c(c(=O)n(C)c(=O)n2C)n1C,8%
CCOC(=O)C1CCCN(C(=O)c2cccs2)C1 (centres undefined),-7%
O=c1[nH]c2ccc(Cl)cc2c(=O)n1Cc1ccco1,-10%

# Among those listed so far, 4 contain four or more nitrogen atoms:
SMILES,HSD17B inhib
Cc1cc(Nc2cccc(C)c2C)n2nc(C)nc2n1,2%
Cc1cccc(N2CCN(C(=O)CCNC(=O)Cn3ccc4ccccc4c3=O)CC2)c1C,0%
COc1ccccc1NC(=O)CSc1nnc(-c2ccncc2)o1,4%
COC(=O)c1ccccc1NC(=O)CSc1nc2c(c(=O)n(C)c(=O)n2C)n1C,8%

# The list continues:
SMILES,HSD17B inhib
CCOc1cc(S(=O)(=O)N2CCN(CC)CC2)ccc1Cl,-1%
COc1ccc(-c2cc3nc(C)cc(NCCO)n3n2)cc1,16µM*
CCOC(=O)C1=C(O)CCn2c1nc1ccccc12,-12%
CCOC(=O)C1CCN(C(=O)CCNC(=O)c2cc(OC)c(OC)c(OC)c2)CC1,-8%
Cc1cc(C(=O)CSc2nnnn2C)c(C)n1CCc1ccc(F)cc1,1%
CCOc1ccc(C2C(C#N)=C(N)Oc3n[nH]c(C)c32)cc1OC(=O)C1CC1 (centres undefined),-20%
Cc1c(-n2c(SCC(=O)O)nnc2-c2ccccc2Cl)c(=O)n(-c2ccccc2)n1C,6%
CCOC(=O)C1CCN(C(=O)C2CCN(S(=O)(=O)c3cccc4cccnc34)CC2)CC1,-2%
Cn1c(C(=O)NCCc2c[nH]c3ccccc23)cc2sccc21,-5%
Clc1cccc(-c2nnc3sc(-c4ccccc4)nn23)c1,-17%
O=C(c1cnc2n(c1=O)CCS2)N(C1CCCCC1)C1CCCCC1,4%
COC(=O)c1ccccc1NC(=O)C1CC=CCC1C(=O)O (centres undefined),?
CCN(CC)c1ccc(NC(=O)C2CC3CCC2C3)cc1 (centres undefined),-19%
CC(=O)c1sc2nc(SCC(=O)N3CCCCC3)[nH]c(=O)c2c1C,-10%
O=C(NCC(=O)N(c1ccccc1)C(C(=O)NCC1CCCO1)c1ccccc1)c1ccco1 (centres undefined),-2%
COc1cc(C2C(C#N)=C(N)Oc3cc(C)oc(=O)c32)ccc1OC(=O)N1CCOCC1 (centres undefined),11%
Cc1nn(Cc2ccccc2)c(C)c1NC(=O)c1cc(-c2ccco2)on1,?
O=C1CC(c2ccco2)Cc2nc(N3CCc4ccccc4C3)ncc21 (centres undefined),?
CCOC(=O)C1CCN(c2ncnc3c2oc2ccc(Br)cc23)CC1,?
CCn1c2c(c3cc(C(=O)O)ccc31)CCCC2=O,?
CN(C(=O)c1cccnc1)c1nc(-c2ccccc2)cs1,-2%
COCCNc1nc2c(c(=O)n(C)c(=O)n2C)n1Cc1cccc(C)c1,0%
Cc1ccc(CSc2nnc(Cn3c(=O)sc4ccccc43)n2C)cc1,2%
CC(C)C(NC(=O)c1ccccc1)C(=O)NC1=NCCS1 (centres undefined),5%
CCOC(=O)C1=C(C)N(C)C(=O)NC1c1cccc(O)c1 (centres undefined),-8%
COc1cc(C)c(C(C)C)cc1S(=O)(=O)n1cnc(C)c1,-6%
Cn1c(Cn2c(=O)sc3ccccc32)nnc1SCC(=O)N1CCCCCC1,10%
Cc1ccc(-c2nnn(CC(=O)N(Cc3ccccc3)C(C(=O)NC(C)(C)C)c3ccncc3)n2)o1 (centres undefined),-3%
C=C(CC1([C@@H](NP(=O)(c2ccccc2)c2ccccc2)[C@H]2C[C@@H]2CCCC)CC1)c1ccccc1,-15%
Clc1ccc(CSc2nnc(-c3cccnc3)n2Cc2ccco2)c(Cl)c1,-3%
Cc1csc(SCc2ccccc2C(=O)O)n1,-1%
O=C(NCC(=O)N(c1cccc(F)c1)C(C(=O)NCC1CCCO1)c1ccccc1)c1ccco1 (centres undefined),8%
CC(C)Cc1cc(C(=O)Nc2ccc(F)cc2F)no1,2%
CCOc1ccccc1OCCCC(=O)N1CCN(S(=O)(=O)c2cccc(F)c2)CC1,4%
CCOC(=O)c1cccc(NC(=O)c2cc3sccc3n2C)c1,15%
CCN1CCN(CC(=O)NC2CCCC2)C(=O)C1=O,1%
Cn1c(NCCCO)nc2c(c1=O)C1(CCCCC1)Cc1ccccc1-2,25µM*
O=C(CN(C(=O)CNC(=O)c1ccco1)c1ccc(Cl)c(Cl)c1)NC1CCCCC1,0%
CCOc1ccc(C2=Nn3cnnc3SC2)cc1,-4%
C=CCc1ccc(OCC(O)COCC)c(OC)c1 (centres undefined),-2%
Cc1ccc(C(C)C)c(OCc2nnc(SCC(=O)Nc3nccs3)n2C)c1,8%
O=C(CSc1nc2ccc(Cl)cc2[nH]1)NCc1ccco1,-5%
Cc1cc(C(=O)N2CCc3ccccc32)c2cc(F)ccc2n1,-4%
CN(Cc1ccco1)c1ncncc1-c1ccc2c(c1)OCO2,-4%
Cc1occc1-c1nnc(SCC(=O)c2ccccc2)n1CC1CCCO1 (centres undefined),-5%
COc1ccc(-c2noc(C3CCCN(S(=O)(=O)c4ccc(C)c(Cl)c4)C3)n2)cc1OC (centres undefined),3%
O=C(CN1CCC2(CC1)OCCO2)c1ccc2cc[nH]c2c1,25µM*
COC(=O)c1ccccc1NC(=O)CN1CCC(C(=O)c2ccc3c(c2)OCCO3)CC1,-2%
C=CC(=C)CC(NC)c1ccccc1 (centres undefined),-5%
C#CCCCC(=O)Nc1ccccc1,-11%
# (more compounds)
SMILES,HSD17B inhib
CCOC(=O)c1nc(S(C)(=O)=O)ncc1N1CCOCC1,-1%
CN(C)C(=O)c1ccc(-c2ccc3ncnc(NCc4cccs4)c3c2)cc1,25µM*
COc1ccc(NC(=O)CSc2nccn2-c2cccc(OC)c2)cc1,6%
O=C(COC(=O)c1ccc(=O)n(Cc2ccccc2)n1)Nc1ccc2c(c1)OCCO2,-1%
O=C(NC1CCCC1)C(c1ccc(O)cc1)N(CC1CCCO1)C(=O)C1COc2ccccc2O1 (centres undefined),-19%
CCC(=O)N(CC)c1nc(-c2ccc(OC)cc2)cs1,1%
COc1ccc(/C(O)=C2/C(=O)C(=O)N(CCN(C)C)C2c2ccccc2)cc1Cl (centres undefined),-10%
Cc1ccc2oc(=O)n(CCOc3ccccc3Cl)c2c1,7%
COCCNC(=O)c1ccc(N2CCCCC2)c(NS(=O)(=O)c2ccc(C)cc2)c1,-6%
COc1ccc(S(=O)(=O)N2CCCC2C(=O)Nn2cnnc2)cc1 (centres undefined),13%
COC(=O)Cc1c(C)nc2nc(NCc3c(F)cccc3Cl)[nH]n2c1=O,9%
O=C(NC1CCN(Cc2ccccc2)CC1)C1CCN(S(=O)(=O)c2cccc3nsnc23)CC1,1%
COc1cc(C(=O)Nc2nc(OC)c(-c3ccccc3)c(OC)n2)cc(OC)c1OC,-25%
O=C(NCc1ccco1)C1CCCCN1S(=O)(=O)c1ccc(F)cc1 (centres undefined),-20%
Cc1cc2c(c(Sc3ccccc3)n1)C(=O)OC2,-2%
COc1ccc(OCC(O)Cn2c(Nc3ccccc3)nc3c2c(=O)n(C)c(=O)n3C)cc1 (centres undefined),-1%
O=C(CCc1ccc(S(=O)(=O)N2CCOCC2)cc1)NCCCN1CCCC1=O,10%
CCOc1ccc(NC(=O)C2CCC(N3C(=O)C4CC=CCC4C3=O)CC2)cc1 (centres undefined),4%
CCCc1nc2ccccc2c(=O)n1/N=C/c1ccc(O)c(O)c1,0%
CCc1ccccc1N(C)C(=O)CCc1nc(-c2ccc(C)cc2)no1,-12%
O=C1NCCN1Cc1cccc(Cl)c1,1%
COc1ccc(NC(=O)C(F)(OC)C(F)(F)F)c(OC)c1 (centres undefined),2%
O=c1[nH]c(SCc2ccccc2Cl)nc2c1cnn2-c1ccccc1,37%[activator]
Cc1nnc2n(-c3ccc(Cl)cc3)c(=O)c3c4c(sc3n12)CN(C)CC4,6%
COCCN(CC(=O)Nc1cccc(C)c1)S(=O)(=O)c1ccc(S(=O)(=O)N2CCCC2)cc1,-2%
N#Cc1c(NC(=O)c2ccc(Cn3cc(Br)cn3)o2)sc2c1CCCCCC2,32µM*
Cc1noc(C)c1S(=O)(=O)N(C)CC(=O)NCc1ccccc1,17%
O=C(Oc1ccc(-c2ccccc2)cc1)N1CCCCC1,-15%
CCN1CCN(C(c2cccs2)C(C)NC(=O)c2cccc(OC)c2OC)CC1 (centres undefined),10%
CCN(Cc1nc2ccccc2c(=O)[nH]1)Cc1cc(=O)oc2cc(C)c(C)cc12,-4%
N/C(COc1ccc(C(=O)O)cc1)=N\O,3%
Cc1nc2ccccn2c1/C(O)=C1\C(=O)C(=O)N(CCN2CCOCC2)C1c1cccs1 (centres undefined),-17%
CCC1=C2CC[C@H]3C(=O)N(C)C(=O)[C@H]3[C@H]2[C@@]2(C)C(=NCc3ccccc3)OC(=O)N2C1=O,6%
Cc1cc(C)c(S(=O)(=O)N2CCN(c3nc4c(c(=O)n(C)c(=O)n4C)n3C)CC2)c(C)c1,3%
O=C(CSc1n[nH]c(-c2ccco2)n1)N1c2ccccc2Sc2ccccc21,1%
O=S(=O)(c1ccc(Cl)cc1)c1ccccn1,-13%
C=CCOC(=O)C1=C(C)NC(C)=C(C(=O)OCC=C)C1c1ccc(O)cc1,?
COc1ccccc1N1CCN(Cc2ccc(OC)c3ccccc23)CC1,?
COc1cc(S(=O)(=O)N2CCN(C(=O)c3ccccc3F)CC2)c(OC)cc1NC(C)=O,9%
C=CCn1c(SCC(=O)NCc2ccc3c(c2)OCO3)nnc1C1CCCCC1,10%
CSc1nnc(-c2ccccc2)c(=O)[nH]1,1%
Cc1ccc(SCN2CCCCC2)cc1 (tested in a mixture with another compound),-5%[11.4 µM]
CC(NCCc1ccc(O)cc1)C(O)c1ccc(O)cc1 (centres undefined),6%
Cc1oc(-c2ccccc2F)nc1CS(=O)(=O)CC(=O)N1CCCCCC1,3%
CCn1c(SCC(=O)Nc2ccc3c(c2)OCCO3)nnc1-c1ccccn1,8%
Cc1cc(C)c(NC(=O)CN2C(=O)NC3(CCCCC3)C2=O)c(Cl)c1,9%
CCOC(=O)c1c(NCc2ccc3c(c2)OCO3)c2ccccc2[nH]c1=O,-7%
O=C(Nc1ccccc1)N1CCC2(CCNCC2)CC1,6%
O=C(c1cnn2c(C(F)F)cc(-c3ccccc3)nc12)N1CCN2CCCC2C1 (centres undefined),-13%
O=C(CNS(=O)(=O)c1ccc(Br)s1)N1CCN(c2ncccn2)CC1,-2%
# The list continues:
SMILES,HSD17B inhib
Cc1cc(C)c(C#N)c(N2CCCC(C(N)=O)C2)n1 (centres undefined),32µM*
CCc1c(C)c(C#N)c2nc3ccccc3n2c1Nc1c(C)n(C)n(-c2ccccc2)c1=O,33%[activator]
CC(C)CN(C(=O)COC(=O)CCc1c[nH]c2ccccc12)C1CCS(=O)(=O)C1 (centres undefined),8%
Cc1c(Cl)ccc2c1NC(=O)[C@]21[C@@H]2C(=O)N(Cc3ccccc3)C(=O)[C@@H]2[C@@H]2CCCN21,-8%
Cc1cc(C)n(S(=O)(=O)c2cc(Cl)ccc2Cl)n1,6%
CC(=O)c1c(C)nn(C(=O)c2cccs2)c1C,9%
Cc1nccn1-c1ncnc2sc3c(c12)CCCC3,2%
Cc1ccc2cc(C)c(N3CCN(c4ccccn4)CC3)nc2c1,?
CC(C)CCNC(=O)CN(C(=O)Cn1nnc(-c2ccc(F)cc2)n1)C1CCCC1,3%
Cn1c(=O)c(=O)n(C)c2cc(S(=O)(=O)N3CCC(N4CCCCC4)CC3)ccc21,-11%

# Some of the entries so far, with bars between the fields:
Compound | HSD17B inhib
O=C(CNS(=O)(=O)c1ccc(Br)s1)N1CCN(c2ncccn2)CC1 | -2%
Cc1cc(C)c(C#N)c(N2CCCC(C(N)=O)C2)n1 (centres undefined) | 32µM*

# Among those listed so far, 9 have two or more sulfur atoms.
SMILES,HSD17B inhib
CC(=O)c1sc2nc(SCC(=O)N3CCCCC3)[nH]c(=O)c2c1C,-10%
Cc1ccc(CSc2nnc(Cn3c(=O)sc4ccccc43)n2C)cc1,2%
Cn1c(Cn2c(=O)sc3ccccc32)nnc1SCC(=O)N1CCCCCC1,10%
Cc1csc(SCc2ccccc2C(=O)O)n1,-1%
Cc1ccc(C(C)C)c(OCc2nnc(SCC(=O)Nc3nccs3)n2C)c1,8%
O=C(NC1CCN(Cc2ccccc2)CC1)C1CCN(S(=O)(=O)c2cccc3nsnc23)CC1,1%
COCCN(CC(=O)Nc1cccc(C)c1)S(=O)(=O)c1ccc(S(=O)(=O)N2CCCC2)cc1,-2%
O=C(CSc1n[nH]c(-c2ccco2)n1)N1c2ccccc2Sc2ccccc21,1%
O=C(CNS(=O)(=O)c1ccc(Br)s1)N1CCN(c2ncccn2)CC1,-2%

# Continued.
SMILES,HSD17B inhib
CCS(=O)(=O)n1nc(-c2ccc(C)cc2)nc1N,4%
CC(=O)Nc1cccc(NC(=O)CSc2nnnn2Cc2ccccc2)c1,-3%
CCOC(=O)c1nn(-c2ccc3c(c2)CCN3C(C)=O)cc1O,25µM*
CN(C)CCNC(=O)c1ccc(CS(=O)(=O)c2ccc(Br)cc2)o1,7%
OCCNCCO,32µM*
O=C(O)c1ccc(Cn2cc(Cl)cn2)cc1,12%
CC(C)(O)C#CC#CCN1CCOCC1,-1%
O=C(c1ccc2c(c1)OCO2)N1CCc2ccccc2C1,3%
COCCCn1c(SCC(=O)N2CCCC(C)C2)nnc1-c1ccco1 (centres undefined),-3%
